Screening results (PubChem BioAssay)
Vaccinia inh: blocks a specific stage of Vaccinia orthopoxvirus infection; 0.01% of 89,000 active; activity change (mCherry), % (test concentration not listed); Vaccinia-infected cells, mCherry/Venus stage reporter fluorescence; stronger effect = lower value; some inactives read as strong as hits;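 active = mCherry past -33% and 40 or more points under the early reporter, replicates agreeing; inconclusive = past -33% without that gap or agreement; tested in A549 cells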;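 note: scaled between vehicle wells and reference inhibitor wells; 23 nL library stock went into each well; one replicate is shown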
Vaccinia inh Venus: recorded beside Vaccinia inh, whose call it bears; activity change (Venus), %; measured here: Venus reporter, other viral stage;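 negative = less Venus signal; first of two replicates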
* hit, by the source's call; ? = inconclusive; . = no result given; & = joins results of further samples.

Under each structure – Vaccinia inh	Vaccinia inh Venus
COc1ccc2c3c([nH]c2c1)[C@@H](CO)N(C(=O)c1cccc(F)c1)CC31CN(C(=O)CC2CC2)C1
    0	-2
O=C(C[C@H]1CC[C@@H]2[C@H](COC[C@@H](O)CN2C(=O)Nc2ccc(F)cc2)O1)NCc1ccncn1
    5	9
CCCC(=O)Nc1ccc2c(c1)C(=O)N(C)[C@@H]1CC[C@H](CC(=O)NCc3ccccc3Cl)O[C@H]1CO2
    -23	-12
C[C@H]1CN([C@@H](C)CO)C(=O)c2cccc(NC(=O)C3CC3)c2O[C@H]1CN(C)Cc1ccc2c(c1)OCO2
    18	-4
C=CCNC(=O)[C@H]1[C@@H]2C(=O)O[C@@H](c3ccccc3)[C@@H](c3ccccc3)N2[C@@H](c2ccccc2OCCO)[C@]12C(=O)N(C(=O)OCCOC)c1ccc(C#Cc3ccc(OC)cc3)cc12
    -24	-18
COCC#Cc1cnc2c(c1)C(=O)N([C@H](C)CO)C[C@H](C)[C@@H](CN(C)S(=O)(=O)c1cn(C)cn1)O2
    12	-2
Cc1ccc(NC(=O)Nc2ccc3c(c2)C(=O)N(C)[C@H]2CC[C@H](CC(=O)NCC(F)(F)F)O[C@H]2CO3)cc1
    -3	6
CS(=O)(=O)Nc1ccc2c(c1)[C@H]1C[C@H](CC(=O)NC3CCCCC3)O[C@H](CO)[C@H]1O2
    6	5
CN(C)C(=O)c1ccc(-c2ccc([C@H]3[C@H](CO)N4C(=O)CN(C(=O)C5CC5)C[C@@H]34)cc2)cc1
    18	3
CO[C@@H]1CN(C)C(=O)c2cc(NC(C)=O)ccc2OC[C@H](C)N(CCc2ccccc2)C[C@H]1C
    0	-3
Cc1cccc(NC(=O)Nc2ccc3c(c2)C(=O)N(C)[C@H]2CC[C@@H](CC(=O)O)O[C@@H]2CO3)c1
    0	2
C[C@@H]1CCCCO[C@H](CN(C)Cc2ccc(Cl)c(Cl)c2)[C@@H](C)CN([C@H](C)CO)C(=O)c2cc(NS(C)(=O)=O)ccc2O1
    -21	-20
C[C@@H]1CCCCO[C@@H](CN(C)C(=O)Cc2ccccc2)[C@H](C)CN([C@@H](C)CO)C(=O)c2cc(NC(=O)c3ccncc3)ccc2O1
    10	-2
C[C@H](CO)N1C[C@H](C)[C@@H](CN(C)Cc2ccc(Oc3ccccc3)cc2)Oc2ccc(N(C)C)cc2CC1=O
    ?	.
C[C@H](CO)N1C[C@H](C)[C@@H](CN(C)Cc2ccc(-c3ccccc3)cc2)Oc2ccc(NC(=O)CCCCCC(=O)Nc3ccccc3N)cc2CC1=O
    -1	0
CCCC#Cc1cnc2c(c1)C(=O)N([C@H](C)CO)C[C@H](C)[C@H](CN(C)S(=O)(=O)c1ccccc1)O2
    16	9
CO[C@H]1CN(C)C(=O)c2cc(NC(=O)c3nc4ccccc4s3)ccc2OC[C@@H](C)NC[C@H]1C
    -4	6
C[C@@H]1CN([C@@H](C)CO)C(=O)c2cc(NC(=O)NC3CCCCC3)ccc2O[C@H]1CN(C)C(=O)NC1CCCCC1
    7	6
COc1ccccc1NC(=O)N(C)C[C@H]1OCc2cnnn2CCCC(=O)N([C@H](C)CO)C[C@@H]1C
    -7&13	0&13
C[C@@H]1CN([C@@H](C)CO)C(=O)c2cc(NS(=O)(=O)c3ccc(F)cc3)ccc2O[C@@H]1CN(C)Cc1ccc2c(c1)OCO2
    -9	-10
C[C@H](CO)N1C[C@H](C)[C@H](CN(C)C(=O)c2cccnc2)Oc2ncc(-c3ccccc3)cc2C1=O
    9	6
COc1ccc(CN(C)C[C@H]2Oc3ccc(NS(=O)(=O)c4ccc(Cl)cc4)cc3C(=O)N([C@H](C)CO)C[C@H]2C)cc1
    -19	-18
C[C@H](CO)N1C[C@H](C)[C@H](CN(C)Cc2ccc3c(c2)OCO3)Oc2c(NC(=O)Nc3ccc4c(c3)OCO4)cccc2C1=O
    -11	-11
CC(C)C#Cc1ccc2c(c1)O[C@@H](CN(C)C)[C@H](C)CN([C@@H](C)CO)S2(=O)=O
    -32	-29
COc1cccc(S(=O)(=O)N[C@H]2CC[C@H](CC(=O)NC3Cc4ccccc4C3)O[C@@H]2CO)c1
    0	10
CCCN(C)C[C@H]1OCCCC[C@H](C)Oc2ccc(NS(=O)(=O)c3ccc(F)cc3)cc2C(=O)N([C@@H](C)CO)C[C@H]1C
    -18	-8
CC(C)NC(=O)N1C[C@@H]2[C@H](c3ccccc31)[C@@H](CO)N2Cc1ccc(Cl)cc1
    16	10
Cc1noc(C)c1S(=O)(=O)Nc1ccc2c(c1)C(=O)N([C@H](C)CO)C[C@@H](C)[C@H](CN(C)S(=O)(=O)c1ccc(Cl)cc1)O2
    0	-4
O=C(C[C@@H]1C[C@@H]2c3cc(NC(=O)Nc4ccc(C(F)(F)F)cc4)ccc3O[C@@H]2[C@H](CO)O1)NCc1ccccn1
    -1	-2
O=C(C[C@@H]1C[C@H]2c3cc(NS(=O)(=O)c4ccc(F)cc4)ccc3O[C@H]2[C@@H](CO)O1)NCc1cccc(F)c1
    -23	-15
C[C@H]1CN([C@@H](C)CO)C(=O)c2cccc(NC(=O)c3ccncc3)c2O[C@@H]1CN(C)C
    26	10
O=C(Nc1cccc(Cl)c1)N[C@@H]1CC[C@H](CCn2cc(Cc3ccccc3)nn2)O[C@@H]1CO
    10	5
C[C@H]1CN([C@@H](C)CO)S(=O)(=O)c2ccc(-c3cncnc3)cc2O[C@@H]1CN(C)C(=O)CC1CC1
    21	5
Cc1ccc(S(=O)(=O)N(C)C[C@@H]2Oc3ccc(NC(=O)CCCN(C)C)cc3C(=O)N([C@H](C)CO)C[C@H]2C)cc1
    12	3
C[C@H]1CN([C@@H](C)CO)C(=O)c2cc(NC(=O)c3ccncc3)ccc2O[C@@H]1CN(C)C(=O)Nc1ccc2c(c1)OCO2
    43	19
O=C(CC1CC1)N[C@H]1CC[C@@H](CCNS(=O)(=O)c2ccc(Cl)cc2)O[C@H]1CO
    -19	-17
CN1C(=O)c2cc(NC(=O)c3cccc(C(F)(F)F)c3)ccc2OC[C@@H]2O[C@H](CC(=O)O)CC[C@@H]21
    8	11
COC(=O)c1c2oc(c1C(=O)OC)C(=O)N(C)Cc1cn(nn1)C[C@@H](Cc1ccccc1)NC(=O)N[C@H](CO)CC2
    13	11
Cc1ccc(-c2ccc(C3[C@H]4CNC[C@@H]3N4Cc3ccc(F)cc3)cc2)cc1 (some centres undefined)
    -5	-10
CCCC#Cc1cnc2c(c1)C(=O)N([C@H](C)CO)C[C@H](C)[C@@H](CN(C)Cc1ccccc1)O2
    -11	-18
C[C@@H]1CN([C@@H](C)CO)C(=O)c2cc(-c3cccc(F)c3)cnc2O[C@@H]1CN(C)Cc1ccccn1
    -2	4
C[C@H](CO)N1C[C@H](C)[C@H](CN(C)Cc2ccc3c(c2)OCO3)Oc2ccc(NC(=O)C3CC3)cc2CC1=O
    0	1
COC(=O)C[C@@H]1C[C@H]2c3cc(NC(=O)CN(C)C)ccc3O[C@H]2[C@H](CO)O1
    -1	1
C[C@H]1CN([C@@H](C)CO)C(=O)Cc2cc(NC(=O)Cc3cn(C)c4ccccc34)ccc2O[C@@H]1CN(C)C(=O)Nc1ccc(C(F)(F)F)cc1
    -7	1
CCC(=O)N1[C@@H]2Cn3c(ccc(-c4cccnc4)c3=O)[C@H]1[C@@H](C(=O)N1CCc3ccccc3C1)[C@@H]2CO
    14	6

Seven records drawn at random from the list so far, as already listed:
Under each structure – Vaccinia inh	Vaccinia inh Venus
CCCC#Cc1cnc2c(c1)C(=O)N([C@H](C)CO)C[C@H](C)[C@@H](CN(C)Cc1ccccc1)O2
    -11	-18
COC(=O)c1c2oc(c1C(=O)OC)C(=O)N(C)Cc1cn(nn1)C[C@@H](Cc1ccccc1)NC(=O)N[C@H](CO)CC2
    13	11
C[C@H]1CN([C@@H](C)CO)S(=O)(=O)c2ccc(-c3cncnc3)cc2O[C@@H]1CN(C)C(=O)CC1CC1
    21	5
C[C@@H]1CN([C@@H](C)CO)C(=O)c2cc(-c3cccc(F)c3)cnc2O[C@@H]1CN(C)Cc1ccccn1
    -2	4
Cc1ccc(-c2ccc(C3[C@H]4CNC[C@@H]3N4Cc3ccc(F)cc3)cc2)cc1 (some centres undefined)
    -5	-10
Cc1ccc(S(=O)(=O)N(C)C[C@@H]2Oc3ccc(NC(=O)CCCN(C)C)cc3C(=O)N([C@H](C)CO)C[C@H]2C)cc1
    12	3
C[C@H]1CN([C@@H](C)CO)C(=O)Cc2cc(NC(=O)Cc3cn(C)c4ccccc34)ccc2O[C@@H]1CN(C)C(=O)Nc1ccc(C(F)(F)F)cc1
    -7	1

Later entries:
Under each structure – Vaccinia inh	Vaccinia inh Venus
C[C@H]1CN([C@@H](C)CO)S(=O)(=O)c2ccc(C#Cc3ccc(F)cc3)cc2O[C@@H]1CN(C)S(=O)(=O)c1ccc(F)cc1
    -26	-24
CC=Cc1ccc2n(c1=O)C[C@@H]1[C@@H](CO)[C@H](C(=O)NCC(F)(F)F)[C@H]2N1C(C)=O (mixture of isomers)
    8	12
Cc1ccccc1S(=O)(=O)N1C[C@@H](O)COC[C@H]2O[C@@H](CC(=O)NCc3ccccc3Cl)CC[C@@H]21
    2	12
CO[C@H]1CN(C)C(=O)c2cc(NS(C)(=O)=O)ccc2OC[C@@H](C)N(C(=O)CC2CC2)C[C@H]1C
    12	8
COc1ccc(NC(=O)N2C[C@H](O)COC[C@H]3O[C@@H](CC(=O)N4CCN(C)CC4)CC[C@@H]32)cc1
    7	8
CC(C)CC#Cc1ccc2c(c1)O[C@@H](CN(C)Cc1ccccc1F)[C@@H](C)CN([C@@H](C)CO)S2(=O)=O
    ?	.
C[C@H]1CN([C@@H](C)CO)C(=O)c2cc(NC(=O)CCCN(C)C)ccc2O[C@@H]1CN(C)C(=O)Nc1cccc2ccccc12
    18	12
C[C@@H]1CN([C@@H](C)CO)C(=O)Cc2cc(NC(=O)Nc3ccc4c(c3)OCO4)ccc2O[C@H]1CN(C)C(=O)NC1CCCCC1
    8	1
CCNC(=O)Nc1ccc2c(c1)C(=O)N(C)[C@H]1CC[C@@H](CC(=O)N[C@H](C)c3ccccc3)O[C@@H]1CO2
    9	6
CNC[C@H]1OCCCC[C@@H](C)Oc2ccc(N(C)C)cc2C(=O)N([C@@H](C)CO)C[C@H]1C
    -7	0
COc1ccc(NC(=O)N2C[C@@H]3[C@H](c4ccccc42)[C@@H](CO)N3C(=O)C2CC2)cc1
    -6	1
Cc1ccc(S(=O)(=O)Nc2ccc3c(c2)C(=O)N([C@@H](C)CO)C[C@H](C)[C@@H](CN(C)Cc2ccc(C(F)(F)F)cc2)OCCCC[C@H](C)O3)cc1
    ?	.
CO[C@H]1CN(C)C(=O)c2cc(NC(C)=O)ccc2OC[C@H](C)N(C(=O)Cc2cccnc2)C[C@@H]1C
    7	-2
COc1ccc(S(=O)(=O)Nc2ccc3c(c2)C(=O)N([C@H](C)CO)C[C@@H](C)[C@@H](CN(C)C)OCCCC[C@H](C)O3)cc1
    7	1
O=C(N[C@@H]1CC[C@H](CCNS(=O)(=O)c2ccc(F)cc2)O[C@H]1CO)C1CCC1
    9	12
O=C(C[C@@H]1CC[C@H]2[C@@H](COC[C@H](O)CN2C(=O)c2cnccn2)O1)NCc1ccc(Cl)cc1
    7	8
C[C@@H]1CCCCO[C@H](CN(C)S(=O)(=O)c2ccc(Cl)cc2)[C@@H](C)CN([C@@H](C)CO)C(=O)c2cc(NC(=O)Cc3ccccc3)ccc2O1
    -11	-2
Cc1noc(C)c1NC(=O)Nc1ccc2c(c1)C(=O)N([C@@H](C)CO)C[C@@H](C)[C@H](CN(C)C(=O)NC(C)C)O2
    19	12
Cc1noc(C)c1NC(=O)N(C)C[C@H]1Oc2ccc(NC(=O)Nc3ccc(F)cc3)cc2C(=O)N([C@H](C)CO)C[C@@H]1C
    13	8
Cc1ccc(S(=O)(=O)N[C@@H]2C=C[C@H](CC(=O)N3CCC(Cc4ccccc4)CC3)O[C@H]2CO)cc1
    ?	.
Cc1ccc(S(=O)(=O)NCC[C@H]2CC[C@@H](NC(=O)CC3CC3)[C@@H](CO)O2)cc1
    1	1
C[C@H]1CCCCO[C@H](CN(C)S(=O)(=O)c2ccccc2)[C@@H](C)CN([C@@H](C)CO)C(=O)c2cc(NS(=O)(=O)c3cn(C)cn3)ccc2O1
    2	1
COc1ccc(NC(=O)N(C)C[C@H]2Oc3ccc(NC(=O)c4ccncc4)cc3C(=O)N([C@@H](C)CO)C[C@H]2C)cc1
    9	7
COc1cccc(CN2[C@@H](CO)[C@@H]3c4ccccc4N(C(=O)CC(F)(F)F)C[C@@H]32)c1
    -28	-16
C[C@@H](NC(=O)C[C@H]1C[C@@H]2c3cc(NC(=O)CC4CC4)ccc3O[C@@H]2[C@@H](CO)O1)c1ccccc1
    3	2
C[C@@H]1CN([C@H](C)CO)S(=O)(=O)c2ccc(C#CC(C)(C)O)cc2O[C@@H]1CN(C)C(=O)C1CCCCC1
    -5	1
COCc1cn(CC[C@H]2CC[C@H](NC(=O)c3ccc(F)cc3)[C@H](CO)O2)nn1
    14	9
COc1cccc(-c2ccc([C@@H]3[C@H]4CN(C(=O)C5CC5)CC(=O)N4[C@H]3CO)cc2)c1
    -20	-12

4 consecutive records from above, quoted:
Under each structure – Vaccinia inh	Vaccinia inh Venus
C[C@@H](NC(=O)C[C@H]1C[C@@H]2c3cc(NC(=O)CC4CC4)ccc3O[C@@H]2[C@@H](CO)O1)c1ccccc1
    3	2
C[C@@H]1CN([C@H](C)CO)S(=O)(=O)c2ccc(C#CC(C)(C)O)cc2O[C@@H]1CN(C)C(=O)C1CCCCC1
    -5	1
COCc1cn(CC[C@H]2CC[C@H](NC(=O)c3ccc(F)cc3)[C@H](CO)O2)nn1
    14	9
COc1cccc(-c2ccc([C@@H]3[C@H]4CN(C(=O)C5CC5)CC(=O)N4[C@H]3CO)cc2)c1
    -20	-12

An excerpt; count on the stated rates, not on these rows.
